# Source: PubChem (several laboratories)
# RGS16-Gao HTS – regulators of human RGS16-Galphao interaction; 220,000 compounds, 0.38% hits; bead-based flow cytometry RGS16-Galphao binding, fluorescence; actives lie on both sides; O15492+P09471; binding response (% of control), % at 10 µM;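 active = below 25% or above 175%, edge rows of some plates excepted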;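 also: Galphao activated by GDP with aluminum fluoride before binding; 100% = wells without compound and 0% = beads without RGS; some results beyond the cut were filed as inactive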
# Target sequence (O15492 whole entry, looked up): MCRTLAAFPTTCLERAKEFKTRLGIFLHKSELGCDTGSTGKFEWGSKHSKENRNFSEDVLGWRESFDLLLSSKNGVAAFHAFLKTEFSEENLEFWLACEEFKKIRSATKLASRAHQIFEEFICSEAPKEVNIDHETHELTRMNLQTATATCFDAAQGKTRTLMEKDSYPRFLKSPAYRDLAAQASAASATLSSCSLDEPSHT
# Target sequence (P09471 whole entry, looked up): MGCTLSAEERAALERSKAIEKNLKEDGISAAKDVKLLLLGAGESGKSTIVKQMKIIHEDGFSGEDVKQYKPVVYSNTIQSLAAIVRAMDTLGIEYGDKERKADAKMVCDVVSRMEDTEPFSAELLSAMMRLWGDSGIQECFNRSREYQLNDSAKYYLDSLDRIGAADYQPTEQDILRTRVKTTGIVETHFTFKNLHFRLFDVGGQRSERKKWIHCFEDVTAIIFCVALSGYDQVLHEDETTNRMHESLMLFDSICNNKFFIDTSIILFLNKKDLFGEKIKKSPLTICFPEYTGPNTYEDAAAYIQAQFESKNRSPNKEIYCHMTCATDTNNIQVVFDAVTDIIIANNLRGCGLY
# PKD1 inh – PKD1 (human) kinase inhibition. Q15139. PKD1 kinase fluorescence polarization assay. inhibition, %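 (about 10 µM by stock and volumes)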. 200,000 compounds, 0.056% hits. AID 797;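 active = inhibition of 50% or more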;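 also: controls were vehicle for no effect and a reference inhibitor for full effect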
# INS promoter inh – TRM-6 insulin promoter activity inhibition | TRM-6 cells (human fetal islet line), insulin promoter-eGFP reporter, imaging; reporter expression induced with tamoxifen | inhibition, % at 2 µM | 130,000 compounds, 0.9% hits | AID 1273;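 active = inhibition above the mean plus 3 SD, with well images judged a real hit on visual review, cut at about 60% in these data, passing the limit was not always enough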
# GALR2 ag – GALR2 (human) receptor agonism; O43603; GALR2-expressing cells, agonist activation read-out; activation, %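 (tested at 5 µM)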; 140,000 compounds, 0.48% hits; AID 803;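 active = above mean plus 3 SD of all compounds, about 5% in these data, not always enough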;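 also: 0% = vehicle buffer wells and 100% = reference agonist at full effect; tested in CHO reporter cells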
# Target sequence (O43603 whole entry, looked up): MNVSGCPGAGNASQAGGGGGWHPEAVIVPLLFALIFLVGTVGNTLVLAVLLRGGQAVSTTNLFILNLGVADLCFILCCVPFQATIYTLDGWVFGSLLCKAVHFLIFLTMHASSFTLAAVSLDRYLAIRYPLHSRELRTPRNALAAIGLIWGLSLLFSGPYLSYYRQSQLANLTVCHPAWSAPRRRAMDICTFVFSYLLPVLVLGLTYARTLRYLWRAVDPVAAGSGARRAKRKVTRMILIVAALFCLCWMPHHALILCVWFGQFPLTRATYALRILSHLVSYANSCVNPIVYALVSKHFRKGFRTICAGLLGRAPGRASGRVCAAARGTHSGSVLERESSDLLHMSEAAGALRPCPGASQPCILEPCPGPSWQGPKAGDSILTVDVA
# HSV augment – increases HSV replication in cells. HSV replication augmentation in cells, fold increase. maximum fold increase. 220,000 compounds, 0.005% hits;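 active = peak rise of 1.5-fold or more in the series; tested in PC3 cells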;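 also: first round at 10 µM; read as green reporter fluorescence; hits show the peak of a series up to 25 µM; 1 = signal of infected wells without compound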
# INS promoter inh cell count – also measured in INS promoter inh; calls as there; normalized cell count, %; measured here: cell count, toxicity; reference of the scale not given here;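 cells exposed to compound for 48 h; stained nuclei by imaging scaled within each plate; lower means fewer cells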
# HSV augment primary fold – second read-out of HSV augment, no call of its own (marks repeat the call); fold increase; compound at 10 µM; measured here: primary screen fold increase 10 uM; tested in PC3 cells;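 GFP signal in the first replicate; 1 = infected wells without compound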
# Starred values were filed as active, the others as inactive; i = inactive; . = no result given.
SMILES,RGS16-Gao HTS,PKD1 inh,INS promoter inh,INS promoter inh cell count,GALR2 ag,HSV augment,HSV augment primary fold
CCN1C(=O)C(O)(CC(=O)c2ccccn2)c2ccccc21 (stereo unspecified),104,-3,75*,26*,-1.6,i,0.9
Cc1nc2ccccc2nc(C)c1=NOCc1cccc(F)c1,95,-1,.,.,.,i,1
O=C(COc1ccccc1)N1c2ccccc2Sc2ccccc21,103,-8,.,.,-1.2,i,0.91
Cc1c(F)cccc1NC(=O)CCC(=O)O,117,-6,31,62,-0.6,i,1
Cc1ccccc1-c1cc(-c2ccccc2O)n[nH]1,43,-2,-32,132,-3.0,i,0.72
S=C(Nc1ccc(Cl)cc1)c1nc2ccccc2[nH]1,105,2,.,.,0.2,i,0.77
O=C(NCc1ccccc1)/C(=C/c1ccco1)NC(=O)c1ccco1,52,1,-255,48,.,i,1.2
O=C1CC(c2ccc(Cl)cc2)n2nc(N3C(=O)c4ccccc4C3=O)nc2N1 (stereo unspecified),102,-13,-45,170,-1.2,i,0.94
COc1ccc2c(CC(=O)N3CCc4ccccc43)coc2c1,96,-8,-7,102,-1.8,i,1
COc1ccc(S(=O)(=O)NC(N)=NCCc2ccc(OC)c(OC)c2)cc1,99,-5,.,.,.,i,1
COc1cccc(C(=O)NCc2n[nH]c(=S)n2-c2cccc(C)c2)c1,94,15,.,.,-0.5,i,0.95
CCOC(=O)C1CN(S(=O)(=O)c2ccc(OC)cc2)c2cc(CC(=O)OC)ccc2O1 (stereo unspecified),103,-5,34,74,-1.9,i,0.88
O=C(CN1C(=O)C(=O)N(Cc2ccccc2)C1=O)Nc1ccc(F)c(Cl)c1,93,3,.,.,.,i,1
CCN(CC(=O)Nc1ccc(NC(C)=O)cc1)CC(=O)Nc1ccc(F)c(Cl)c1,100,-3,-33,185,.,i,0.94
O=C(CCCCl)NC(=S)Nc1ccc(N2CCOCC2)cc1,104,.,.,.,.,i,0.92
CCCCn1c(=S)[nH]c2ccccc2c1=O,37,-3,17,55,-0.4,.,.
COCC(=O)Nc1ccc([N+](=O)[O-])cc1OC,113,-4,42,136,0.5,i,0.92
O=C(NCCO)c1cc([N+](=O)[O-])cc2c1C=Cc1ccccc1O2,90,8,-8,95,.,i,0.94
CCS(=O)(=O)c1ccc2c(c1)N(S(=O)(=O)c1ccc(C)cc1)CC(C(=O)O)O2 (stereo unspecified),97,-2,11,105,.,i,0.96
O=C(c1ccccc1S(=O)(=O)NCc1ccccc1)N1CCCC1,104,-6,.,.,.,i,1.2
Cc1c(C(=O)N2CCc3ccccc3C2)oc2ccc(S(=O)(=O)N3CC(C)CC(C)C3)cc12 (stereo unspecified),80,-14,27,62,-0.1,i,0.99
Nc1ccc(-n2nc(C(F)(F)F)cc2C(F)(F)F)cc1,78,.,.,.,.,i,1.2
COc1cc(/C=N/NC(=O)C(=O)NCc2cccnc2)cc(OC)c1OC,35,1,28,124,-0.2,i,1.1
O=C(Nc1nnc(-c2ccco2)o1)c1ccc(Cl)cc1,102,-2,.,.,.,i,1

# Ordered by value in PKD1 inh (high to low): seven of the compounds above
compound | PKD1 inh
O=C(CN1C(=O)C(=O)N(Cc2ccccc2)C1=O)Nc1ccc(F)c(Cl)c1 | 3
S=C(Nc1ccc(Cl)cc1)c1nc2ccccc2[nH]1 | 2
Cc1nc2ccccc2nc(C)c1=NOCc1cccc(F)c1 | -1
Cc1ccccc1-c1cc(-c2ccccc2O)n[nH]1 | -2
CCN(CC(=O)Nc1ccc(NC(C)=O)cc1)CC(=O)Nc1ccc(F)c(Cl)c1 | -3
CCOC(=O)C1CN(S(=O)(=O)c2ccc(OC)cc2)c2cc(CC(=O)OC)ccc2O1 (stereo unspecified) | -5
O=C(c1ccccc1S(=O)(=O)NCc1ccccc1)N1CCCC1 | -6

# Other entries follow.
SMILES,RGS16-Gao HTS,PKD1 inh,INS promoter inh,INS promoter inh cell count,GALR2 ag,HSV augment,HSV augment primary fold
COCc1nnc(NC(=O)c2ccccc2[N+](=O)[O-])s1,96,-2,-35,128,-0.3,i,0.96
O=C(Cn1cnc2ccccc2c1=O)OCC(=O)c1ccc2c(c1)OCCO2,109,3,.,.,-3.1,i,0.98
CCOC(=O)c1nn(-c2ccc(F)cc2)c2nc(CC(C)C)c(C#N)c(=O)n12,101,-5,-278,101,-0.6,i,0.89
COC(=O)c1cccc(NS(=O)(=O)c2ccc(NC(C)=O)cc2)c1C,97,0,50,145,-1.8,i,0.93
O=C1C2CC=C(Cl)CC2C(=O)N1CC1OCCc2ccccc21 (stereo unspecified),92,-5,-34,267,0.1,i,0.98
COc1cccc(NC(=O)CNC(=O)c2cccs2)c1,107,6,-43,100,-1.2,i,0.89
C=CCSc1nc(C)c(CCCC)c(=O)[nH]1,101,3,.,.,.,i,1.1
COc1cccc(C(=O)Nc2ccc(C(=O)O)cc2)c1,101,9,-19,98,-1.7,i,0.82
O=C(O)C1CCC(Cn2c(SCc3cc(=O)n4cc(Cl)ccc4n3)nc3ccsc3c2=O)CC1 (stereo unspecified),103,1,50,139,.,i,0.97
CCCc1cc(=O)[nH]c(SCC(=O)N(C)CC(=O)Nc2ccccc2CC)n1,104,-1,.,.,-1.8,i,1.1
COC(=O)/C=C(\C)NC(=O)c1ccc(F)cc1,71,-4,32,115,-2.2,i,1
Cc1ccc(CNC(=O)COC(=O)CSc2cc(C)c(Br)cc2C)cc1,105,-11,.,.,-0.6,i,0.9
CCOc1ccc(NC(=O)CC2C(=O)N(c3ccccc3)C(=O)N2Cc2ccccn2)cc1 (stereo unspecified),378,-1,.,.,-1.1,i,0.93
Cc1cnnn1-c1ccc(C(=O)CCl)cc1,101,3,-56,97,-1.7,i,1.1
CC1CN(C(=O)CCc2ccccc2)C(C)CN1C(=O)CCc1ccccc1 (stereo unspecified),105,1,8,109,-0.3,i,0.92
O=C(NCc1ccncc1)/C(=C/c1cccc([N+](=O)[O-])c1)NC(=O)c1ccccc1,98,.,.,.,.,i,1.1
Cc1nc(NC(=O)CSc2nncs2)c(Cl)cc1Cl,106,.,.,.,.,i,0.98
CCC(C)[C@H](NC(=O)NCc1ccc(S(N)(=O)=O)cc1)C(=O)OC (stereo partly specified),94,-1,.,.,.,i,0.78
CC1(C)OC(=O)N(c2ccccc2)C12C=Cc1c(ccc3ccccc13)O2 (stereo unspecified),66,0,-69,109,-2.5,i,0.72
CNC(=O)Nc1cccc(C(F)(F)F)c1,101,-10,81*,130*,-0.8,i,0.82
COc1cc(NC(=O)Cc2cccs2)cc(OC)c1,97,-3,-28,130,-1.9,i,0.86
COC(=O)c1cc(Br)c(=O)n(CCN2CCCC2)c1,104,8,26,109,-1.7,i,0.92
N#CC1=C(SCC(=O)NCc2ccccc2)NC(=O)CC1c1ccco1 (stereo unspecified),102,-13,-39,53,5.5,i,0.97
CCCc1nc(N)c(C#N)c(N)c1C#N,107,-11,.,.,-0.7,i,0.97

# Four records picked at random from the list so far:
SMILES,RGS16-Gao HTS,PKD1 inh,INS promoter inh,INS promoter inh cell count,GALR2 ag,HSV augment,HSV augment primary fold
Cc1nc(NC(=O)CSc2nncs2)c(Cl)cc1Cl,106,.,.,.,.,i,0.98
CCCc1nc(N)c(C#N)c(N)c1C#N,107,-11,.,.,-0.7,i,0.97
O=C(NCc1ccncc1)/C(=C/c1cccc([N+](=O)[O-])c1)NC(=O)c1ccccc1,98,.,.,.,.,i,1.1
COc1cc(NC(=O)Cc2cccs2)cc(OC)c1,97,-3,-28,130,-1.9,i,0.86

# More compounds follow.
SMILES,RGS16-Gao HTS,PKD1 inh,INS promoter inh,INS promoter inh cell count,GALR2 ag,HSV augment,HSV augment primary fold
O=C(Cn1nc(CNc2ccc(Cl)cc2)[n+]2c1CCCCC2)c1ccc(Br)cc1,103,14,-43,90,-0.4,i,0.87
O=C1CCCC2=C1C(c1ccccc1)CC(=O)N2c1ccc(F)cc1F (stereo unspecified),109,2,-27,96,.,i,0.93
COc1cc(C2C(C#N)=C(N)Oc3cc4c(cc32)OCO4)cc(OC)c1OC (stereo unspecified),113,15,-121,7,.,i,0.64
COc1ncccc1-c1nnn(-c2ccc(C)cc2)n1,92,-4,.,.,.,i,0.94
COC(=O)c1cc(C(=O)OC)n(Cc2ccc(Cl)cc2Cl)n1,107,1,61,69,-3.8,i,0.94
CCc1cc(C(=O)c2ccc(OC)cc2)c(NC(=O)CCC(=O)O)s1,98,.,.,.,.,i,1
CCS(CC)=NS(=O)(=O)c1ccc(NC(C)=O)cc1,103,1,-25,56,-1.8,i,0.95
Cc1nn(C)c(C)c1NC(=O)c1cc2nc(-c3ccco3)cc(C(F)(F)F)n2n1,92,-7,.,.,.,i,0.93
O=C(CN1C(=O)C2C3C=CC(C3)C2C1=O)Nc1ccc(S(=O)(=O)N2CCCCC2)cc1 (stereo unspecified),105,0,-20,103,-1.6,i,1
O=C(/C=C/c1ccccc1)Nc1ncn[nH]1,97,14,3,118,-4.0,i,0.85
CCn1c(SCC(=O)n2c(C)c(C)c3ccccc32)nnc1-c1ccco1,99,-5,.,.,-2.9,i,0.72
O=C(c1ccccc1)N1CCOC12CCN(c1ncc(C(F)(F)F)cc1Cl)CC2,112,-12,-14,108,-3.0,i,0.89
CC(=O)C1=C(C)N(CC2CC2)C(=O)N[C@H]1c1ccc(Br)cc1,85,7,-35,95,-1.7,i,0.88
CCCCNC(=O)c1ccc2c(c1)ncn2C1CCCCC1,104,-1,-38,145,-1.4,i,0.84
Cc1cccc(C)c1NC(=O)C(NC(=O)CN1C(=O)c2ccccc2C1=O)c1ccccc1 (stereo unspecified),97,-2,28,94,-1.2,i,1.1
CCOc1ccc2[nH]c(O)c(NC(C)=O)c2c1,72,-1,-21,128,-5.2,i,0.83
CN(C)CCCCCCCCCCC(=O)/C=N/O,.,12,-47,106,-5.5,i,1.1
O=C(Nc1ccc(Br)c(C(F)(F)F)c1)c1ccccc1,104,-1,-51,104,-0.3,i,0.83
O=C1C=CC2C(c3ccc4c(c3)OCO4)CC1N2Cc1ccccc1 (stereo unspecified),120,8,-33,106,0.3,i,1.1
CCCCn1c(SCC(=O)Nc2cc(NC(=O)c3ccco3)ccc2C)nc2ccccc2c1=O,100,-3,-12,97,-1.5,i,0.83
Cc1ccccc1OCC(=O)Nc1nc(C)c(C(=O)N(C)C)s1,102,7,29,138,-1.7,i,1.1
Oc1ccc(/C=N/Nc2nn3cnnc3c3ccccc23)cc1,93,.,.,.,.,i,0.89
CCCOc1cc(C)c(S(=O)(=O)N2CCN(C)CC2)cc1C,135,7,-15,122,-1.9,i,0.99
CCOC(=O)C(=Cc1c[nH]c2ccc(S(=O)(=O)N(C)C)cc12)C(=O)OCC,100,.,.,.,.,i,0.82
CCOc1cc(C2NN=C(c3ccccc3)S2)ccc1OCc1ccccc1Cl (stereo unspecified),109,8,.,.,-1.6,i,0.9
CCc1ccc(N(C(=O)CNC(=O)c2ccco2)C(C(=O)NCC2CCCO2)c2ccccc2)cc1 (stereo unspecified),104,10,.,.,.,i,1.1
N#Cc1cc([N+](=O)[O-])ccc1Oc1cccc(/C=N/NC(=O)c2cccc(Cl)c2)c1,85,-4,-11,117,-3.7,i,1
CCOC(=O)c1cc(OC(=O)c2cccc([N+](=O)[O-])c2)n(-c2ccccc2)n1,66,-12,47,115,-0.8,i,1.1
COc1ccc(N/N=C(\C#N)C(=N)N2CCOCC2)cc1,113,-11,-12,68,.,i,0.91
NC1=NC[C@H](Cc2ccccc2)N1CCCCC1CCCCC1,104,.,.,.,.,i,0.76
Cc1sc2ncnc(SCC(=O)N3CCC(c4noc5ccc(F)cc45)CC3)c2c1C,73,-12,47,90,-1.6,.,.
O=C(CC1Nc2ccccc2NC1=O)c1ccccc1 (stereo unspecified),112,-21,.,.,0.5,i,1.3
CC(C)CCNc1ncnc2c1nnn2Cc1ccccc1Cl,103,0,5,69,0.1,i,1
COc1ccc(C2Nc3ccccc3C(=O)N2c2ccc(F)cc2)cc1Cn1nnc2ccccc21 (stereo unspecified),101,-6,13,108,0.1,i,0.78
Cc1cc(C)n(-c2ccc(C(=O)OCC(=O)Nc3ccc(Cl)cc3[N+](=O)[O-])cc2)n1,98,4,16,130,-3.0,i,0.87
CCCN(CCC)CCCNC(=O)c1nn(-c2cccc(OC)c2)c(=O)c2ccccc12,104,9,-35,89,.,i,0.93
COCCN1C(=O)C(=O)/C(=C(/O)c2cccc(S(=O)(=O)N(C)C)c2)C12C(=O)N(C)c1ccccc12 (stereo unspecified),88,2,14,140,1.3,i,0.92
Cc1ccc(C(=O)N/C(=C\c2ccccc2)C(=O)NCCCn2ccnc2)cc1,108,-4,.,.,.,i,0.96
CC(NCc1ccc2c(c1)OCO2)C(=O)NC1CCCCC1 (stereo unspecified),84,2,-46,43,.,i,0.99
C/C(=N\NC(=O)c1cccnc1)c1c(O)cc(C)oc1=O,106,-3,-29,72,-0.2,i,1
